Assay outcomes deposited in PubChem BioAssay by Center for Chemical Genomics, University of Michigan.
CDC25B CDK2 inh = human CDC25B-CDK2/CyclinA binding inhibition. actives 0.72% (n = 94,000). z-score (concentration not given with the values). HTRF CDC25B-CDK2/CyclinA binding, anti-His/anti-Flag; active compounds read high. P30305+P24941;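 also: score is relative to mean and SD of negative controls; strong numbers were not always called active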
TAR Tat displ = HIV-1 TAR-Tat binding disruption. HIV-1 TAR RNA, Tat peptide displacement FRET; active compounds read high. z-score (no concentration beside the values). actives 0.6% (n = 100,000);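 also: score is relative to mean and SD of negative controls; some compounds called inactive have numbers as strong as hits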
* = called active by the depositor; · = not tested or not shown.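 The calls were made as follows: active = z-score from 3 up in half or more of its runs; inactive = the rest.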 Compounds as they come. About 0.9% of those tested had a hit in this group.

mol	CDC25B CDK2 inh	TAR Tat displ
COc1cc(-c2n[nH]c(=S)n2-c2ccccc2Cl)cc(OC)c1OC	-0.97	·
Fc1ccc(-c2csc3ncnc(NCc4cccs4)c23)cc1	·	0.23
Brc1ccccc1-c1nnc2sc(C3COc4ccccc4O3)nn12 (configuration not stated)	-1.8	2.5
O=S(=O)(NC1CCCCC1N1CCN(c2ncccn2)CC1)c1ccc(Cl)cc1 (configuration not stated)	-0.57	0.54
COc1ccc(C2=NN(C(=O)CSC3=NCCS3)C(c3ccc(F)cc3)C2)cc1 (configuration not stated)	-0.95	·
C(=NC1CC1)c1ccc(-c2ccccc2)cc1	-0.04	·
C=CCN(C(=O)c1oc(=O)c2ccccc2c1-c1ccccc1)c1ccccc1	-0.4	1.1
Cc1cc(-c2ccc(C(C)C)c(S(=O)(=O)NC(C)(C)C)c2)on1	·	1.8
CCc1cccc(NS(=O)(=O)c2ccc(-c3cc(C)no3)s2)c1	·	1.9
Cc1ccc(OCC(O)CN2CCC(C)CC2)c(C)c1 (configuration not stated)	-0.49	-0.75
CCOc1ccc(-c2nc(-c3ccc(C)s3)no2)cc1	·	2.6
CCCCN1C(C)=NS(=O)(=O)c2cc(C(=O)NC(C)(C)C)ccc21	·	1.2
O=[N+]([O-])c1cccnc1NCCc1ccccn1	-1.5	·
CC(C)Cn1c(=O)c2sccc2n2c(CCCC(=O)N3CCCCC3)nnc12	·	1.6
CCOC(=O)c1c(NC(=O)N(Cc2ccco2)C2CCN(C(C)=O)CC2)sc2c1CCCC2	·	0.82
Cc1ccccc1C1CC(=O)c2cnc3c(-c4ccccc4)c(C)nn3c2C1 (configuration not stated)	-1.5	1.3
Cc1c(-c2cnc(NC(=O)c3ccccc3)s2)sc2ccc(Cl)cc12	-0.18	·
Cc1c(Cl)cccc1-n1ccn2c(=O)[nH]nc2c1=O	0.16	1.1
CCOC(=O)C1CCCN(c2c(N3CCN(c4ccccc4F)CC3)c(=O)c2=O)C1 (configuration not stated)	0.34	0.42
Fc1ccc(CNc2nc3ccccc3n3nnnc23)cc1	-2.7	-1.8
CCOC(=O)N1CCN(C(=O)COc2ccc(Cl)cc2Br)CC1	-1.4	-0.09
Cc1ccc(COc2ccccc2-c2nnc(-c3ccccc3)o2)cc1	·	0.69
Cn1nc(C(=O)NCc2ccc3c(c2)OCO3)c2c1-c1ccccc1OC2	-0.15	0.55
Cc1c(C)n(CC(O)CN2CCN(CC(O)Cn3c(C)c(C)c4ccccc43)CC2)c2ccccc12 (configuration not stated)	0.51	·
CCCN1C(=O)C2(/C(=C(/O)c3ccc(F)cc3)C(=O)C(=O)N2CC2CCCO2)c2ccccc21 (configuration not stated)	1	1.2
Oc1cccnc1NC(c1ccc(Cl)cc1)c1ccc2cccnc2c1O (configuration not stated)	0.14	-1.1
COC(=O)c1sc(=S)n(-c2cc(C)cc(C)c2)c1N	·	0.44
CC1(C)CC(=O)C2=C(C1)NC1=C(C(=O)CC(C)(C)C1)C2c1ccc(C(F)(F)F)cc1	-1.8	·
CCOC(=O)c1ccc(N2C(=O)c3[nH]nc(-c4ccc(C)cc4)c3C2c2cccnc2)cc1 (configuration not stated)	·	1.6
CC1=C/C(=C/N(C)c2ccccc2)C(=O)S1	-1.3	0.01
COCCNC(=O)Cn1cc2c(n1)CCCCC2	-0.78	1.6
COc1ccc2sc(N(CCCN(C)C)C(=O)c3cccs3)nc2c1	·	1.3
O=C(Nc1ccc(OCc2cc(=O)n3ccccc3n2)cc1)c1ccco1	·	-0.81
CC(CC(=O)N1CCN(c2ccccc2F)CC1)CC1=NS(=O)(=O)c2ccccc2N1 (configuration not stated)	·	0.26
CCCOc1ccccc1/C=N/NC(=S)Nc1cccc(F)c1	-2.2	·
O=C(NCc1cccnc1)c1ccc2c(c1)C1C3CCC(C3)C1C(c1ccccc1)N2 (configuration not stated)	0.34	-0.71
Nc1ncnc2c1ncn2C1CCCC1	-2.2	·
O=C(O)CC(C(=O)O)c1c[nH]c2ccccc12 (configuration not stated)	-1.9	1.4
CC1CCN(c2ncc3c(n2)CCN(CCc2ccccc2)C3)CC1	·	0.28
CCN1c2ccccc2-c2nc3ccccc3n2C1c1ccncc1 (configuration not stated)	1.9	2.1
COc1ccc(OC)c(Nc2nc3ccccc3c3nncn23)c1	-0.8	0.96
CCC1c2ccc(C)n2CCN1C(=O)Nc1ccc(Br)cc1F (configuration not stated)	-1.7	-8.6
CCOC(=O)c1ccccc1NC(=O)c1cc(-c2cccs2)nc2ccccc12	-13	·
COCCNC(=O)c1cc2c(s1)-c1ccc(Cl)cc1S(=O)(=O)C2	-1.2	1.6
CN1CC2CCC1C[C@H](NC(=O)c1ccccc1)C2 (some centres not stated)	-1.3	·
N#C/C(=C\c1cccs1)c1csc2ccc(Cl)cc12	-1.3	·
CCCOc1ccc(C2c3c(-c4ccccc4O)n[nH]c3C(=O)N2CC2CCCO2)cc1 (configuration not stated)	0.43	2.4
COc1cccc([C@H]2Nc3ccc(S(=O)(=O)Nc4ccccc4F)cc3C3C=CCC32)c1OC (some centres not stated)	-1.2	-5.8
Cc1ccc(N2C(=O)N(c3ccc(F)cc3)C3CS(=O)(=O)CC32)cc1 (configuration not stated)	-1.5	0.46
O=C(Nc1ccc(OCc2cc(=O)n3cc(Cl)ccc3n2)cc1)C1CCCCC1	·	0.21
CCN(CC)c1ccc(Nc2nc(-c3sc(NC(C)=O)nc3C)cs2)cc1	-0.29	0.82
CCc1ccc(CN(C(=O)Cc2coc3ccc(CC)cc23)C2CCS(=O)(=O)C2)cc1 (configuration not stated)	-0.58	1.1
CC(=O)Oc1cccc(N2C(=O)C3CC=C(C)CC3C2=O)c1 (configuration not stated)	-0.17	2
Cc1ccc(-c2nc3c4c(C)c(C)n(CCN5CCOCC5)c4ncn3n2)cc1	-1.9	0.96
Cc1ccsc1C1Nc2nonc2NC2=C1C(=O)CC(C)(C)C2 (configuration not stated)	-1.5	-1.2
Cc1ccc(CN(C(=O)c2ccccc2Br)C2CCS(=O)(=O)C2)o1 (configuration not stated)	-2.7	2.7
Cc1[nH]c2ccccc2c1C(=O)CSc1nnc(C2CCCCC2)n1C	-2.2	-1.2
Cc1nnc(NC(=O)Cn2c(=O)sc3ccccc32)s1	-0.73	·
C=CCn1c(O)c(C2=Nc3ccccc3SC(c3ccc(OC)c(O)c3)C2)c(=O)[nH]c1=O (configuration not stated)	0.09	2.1
Cc1nnc(N2C(=O)c3oc4ccccc4c(=O)c3C2c2ccco2)s1 (configuration not stated)	-1.4	4.7

Molecules shown so far containing bromine, in the order listed:
mol	CDC25B CDK2 inh	TAR Tat displ
Brc1ccccc1-c1nnc2sc(C3COc4ccccc4O3)nn12 (configuration not stated)	-1.8	2.5
CCOC(=O)N1CCN(C(=O)COc2ccc(Cl)cc2Br)CC1	-1.4	-0.09
CCC1c2ccc(C)n2CCN1C(=O)Nc1ccc(Br)cc1F (configuration not stated)	-1.7	-8.6
Cc1ccc(CN(C(=O)c2ccccc2Br)C2CCS(=O)(=O)C2)o1 (configuration not stated)	-2.7	2.7

(listing goes on)
Results follow in this order: CDC25B CDK2 inh, TAR Tat displ
NNC(=O)c1cc(Br)c[nH]1
  -1.3, ·
CN(C)S(=O)(=O)c1ccc2c(c1)nnn2CCNC(=O)Nc1ccc(Cl)cc1
  ·, 1.7
Cc1c(Cl)cccc1NS(=O)(=O)c1cc(Br)cnc1N
  -1.7, 1.7
Cc1ccc(C(=O)N2CC(C)CC(C)C2)cc1NC1=NC2CS(=O)(=O)CC2S1 (configuration not stated)
  0.52, 1.2
O=C(CC1CCCCC1)N1CCN(Cc2noc3ccccc23)CC1
  ·, 1
COc1ccc(-c2nn3c(C4COc5ccccc5O4)nnc3s2)cc1OC (configuration not stated)
  -2.2, 2
NC(=S)c1ccc([N+](=O)[O-])s1
  -1, ·
COC(=O)c1cc2n(n1)CC(C)(C(=O)NC1CCC(C)CC1)N(CCc1cccs1)C2=O (configuration not stated)
  ·, 0.65
Cc1ccc2nc(-n3nc(C)c4c3NC(=O)CC4c3ccc(F)c(Br)c3)sc2c1 (configuration not stated)
  ·, 0.87
O=C(NC1CCCC1)NC1COc2ccccc2C1 (configuration not stated)
  ·, 0.36
O=C(Cn1c(=O)c2cccn2c2cccnc21)N1CCN(c2ccccc2)CC1
  ·, -1.1
CCc1nnc2sc(-c3ccccc3C)nn12
  -1.1, -0.08
Cc1ccc(C)c(S(=O)(=O)NCCc2csc3nc(-c4ccc(F)cc4)nn23)c1
  ·, 0.91
CC1=C(c2ccc(C)c(C)c2)S(=O)(=O)N(Cc2ccc(C(=O)NC(C)c3ccccc3)cc2)C1=O (configuration not stated)
  ·, 1.2
CCc1nn(CC(=O)NC2CC2)c(=O)c2cc3occc3n12
  -0.95, 3.2

Looked up one by one from above, 6 records:
Results follow in this order: CDC25B CDK2 inh, TAR Tat displ
COC(=O)c1cc2n(n1)CC(C)(C(=O)NC1CCC(C)CC1)N(CCc1cccs1)C2=O (configuration not stated)
  ·, 0.65
CC1=C(c2ccc(C)c(C)c2)S(=O)(=O)N(Cc2ccc(C(=O)NC(C)c3ccccc3)cc2)C1=O (configuration not stated)
  ·, 1.2
O=C(NC1CCCC1)NC1COc2ccccc2C1 (configuration not stated)
  ·, 0.36
O=C(Cn1c(=O)c2cccn2c2cccnc21)N1CCN(c2ccccc2)CC1
  ·, -1.1
Cc1c(Cl)cccc1NS(=O)(=O)c1cc(Br)cnc1N
  -1.7, 1.7
O=C(CC1CCCCC1)N1CCN(Cc2noc3ccccc23)CC1
  ·, 1

(next part)
Results follow in this order: CDC25B CDK2 inh, TAR Tat displ
O=C(Cn1cc(SCc2ccc(Br)cc2)c2ccccc21)N1CCCC1
  ·, -0.95
CC(C)NC(=O)CCc1nc2sc3c(c2c(=O)[nH]1)CCC(C(C)(C)C)C3 (configuration not stated)
  ·, 0.44
CCC(C)S(=O)(=O)c1oc(-c2cccs2)nc1S(=O)(=O)c1ccc(C)cc1 (configuration not stated)
  -1.1, -1.8
Cc1csc(NC(=O)CCc2c(C)nc3c(-c4ccc(F)cc4)c(C)nn3c2C)n1
  -0.16, ·
O=C(CSc1nncn2c1cc1sccc12)Nc1ccc(Br)cc1F
  ·, 2.1
CCCS(=O)(=O)c1nc(S(=O)(=O)c2ccc(C)cc2)c(N2CCCC2)s1
  -0.92, 0.06
COc1cccc(C2CC(=O)C3=C(C2)Nc2ccccc2NC3c2cc3c(cc2Cl)OCO3)c1 (configuration not stated)
  -1.3, ·
CCOC(=O)COc1ccc2c(=O)c(Oc3ccccc3Br)coc2c1
  -3, -0.21
Cc1nnc(N2CCN(C(=O)NCC3CCCO3)CC2)c2nn(-c3ccc(Cl)cc3)c(C)c12 (configuration not stated)
  ·, 1.3
Cc1ccc2[nH]c(C(=O)O)cc(=O)c2c1
  -2.3, 0.71
CC(C)(O)C1Cc2cc(/C=C3\OC(=O)C(c4cc5c(cc4O)OC(C)(C)C(O)C5)=C3O)ccc2O1 (configuration not stated)
  ·, 1.9
O=S(=O)(Nc1cccc(-c2ccc(N3CCCC3)nn2)c1)c1ccccc1F
  ·, 0.05
O=C1CC(c2ccccc2C(F)(F)F)c2cc3c(cc2N1)OCCO3 (configuration not stated)
  -0.84, ·
COCCNC(=O)c1nn2c(C(F)(F)F)cc(-c3ccc(Br)cc3)nc2c1Cl
  -1.6, 0.52
CCOC(=O)NN=C1CCCC1
  -1.3, ·
Cc1ccc(Cl)cc1NC(=O)Nc1c[nH]c(=O)[nH]c1=O
  ·, 1
C=CCn1c(=O)c(C#N)cc2c(=O)n3ccccc3nc21
  -2.8, -0.33
O=c1nc(/C=C/c2ccccc2Cl)cc(C(F)(F)F)[nH]1
  -0.43, 0.87
COc1ccc(-c2c(C)nn3c(N4CCc5ccccc54)cc(C)nc23)cc1OC
  -0.31, 1.1
O=C(O)c1cnc2nc[nH]n2c1=O
  -0.56, -5
S=C(NCCc1ccccc1)N/N=C/c1c(-c2ccc(Cl)cc2)[nH]c2ccccc12
  -0.45, ·
CCOC(=O)c1cn[nH]c1S(=O)(=O)Nc1cc(Cl)c(OC)cc1OC
  ·, 0.29
Cc1cc(C)c(CN)cc1CN
  -2, ·
O=C(NCCN1CCOCC1)C1CCN(C(=O)c2cc3ccsc3[nH]2)CC1
  ·, 2.2
CCOC(=O)N1CCC2(CC1)OC(=O)C(C)=C2C(=O)NCCC(C)C
  ·, 1.3
Cc1ccc(-c2onc(C)c2C)cc1S(=O)(=O)N(Cc1ccccc1)C(C)C
  ·, 1.6
Cc1noc(C(=O)Nc2cc(Cl)ccc2O)c1Cl
  -1.8, -1.7
Fc1ccc(CNc2ncnc3scc(-c4ccc(F)cc4)c23)cc1
  ·, -1.1
Cc1cc(NC(=O)C2Sc3nnc(C)n3NC2c2ccc(F)cc2)ccc1Br (configuration not stated)
  -2.2, 3
CCCC(CCC)n1[nH]c(=O)cc1N
  -1.9, 0.8
O=c1c2ccccc2nc(SCc2cc(=O)n3ccccc3n2)n1C1CCCC1
  -0.94, ·
Fc1ccc(-c2cn3cc(Cc4ccc(Cl)cc4)sc3n2)cc1
  -1.6, 2.9
O=C(NNc1c([N+](=O)[O-])cc(C(F)(F)F)cc1[N+](=O)[O-])c1ccccc1-n1cccc1
  -1.8, ·
COCCNc1nc(N2CCN(C)CC2)c2cnn(C)c2n1
  ·, 1.3
Cc1ccc(OCc2ccc(-c3nc(C#N)c(NCc4ccc(F)cc4)o3)o2)cc1
  -0.18, -0.45
CC(C)CC(=O)Cn1c(NCCO)nc2ccccc21
  -1.5, 1.4
Cc1ccccc1C1CC(c2ccc(Br)s2)Nc2nnnn21 (configuration not stated)
  -1.3, ·
O=C1CN(C(=O)C2CCCCC2)c2ccccc2N1
  -0.66, -1.4
COc1ccccc1-n1nc(C(=O)Nc2c(F)cc(F)cc2Br)c2ccccc2c1=O
  ·, -1.1
CCCCOC(=O)c1ccc(NC(=S)NC(NC(=O)OCC)C(Cl)(Cl)Cl)cc1 (configuration not stated)
  0.54, ·
O=C(CN1C2=NCCCN2c2ccccc21)c1ccc(Cl)cc1
  -0.93, 0.49
